Lassa entry inh = blocks Lassa virus binding to or entry into cells; Potency, µM (series often up to 37.9 µM), for the others: top-dose activity change, negative = inhibition, actives largely listed as inhibitors; Lassa virus pseudotype entry inhibition, cell reporter; control for the full effect not named in the record; 300,000 compounds, 1.2% hits; active means well fitted inhibition curve with a large enough effect; inconclusive means small, poorly fitted or top-dose-only effect, or effect the other way; inactive means flat fitted curve, though single readings scatter; tested in HEK293 cells; note: % is set by controls: 0 for no effect and ±100 for the full control effect; nearly all actives have a fitted effect of over 50% in size; luciferase read-out
Cruzain noTriton = blocks cruzain activity in detergent-free assay; AID 1476; purified cruzain, Z-FR-AMC fluorescence, no detergent; 200,000 compounds, 2.3% hits; Potency, µM, without a hit: max response, negative = inhibition, most hits filed as inhibitors; P25779;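 note: plate controls were enzyme without inhibitor for no effect and buffer without enzyme for full effect; nearly all actives have a fitted effect of over 40% in size; top concentration of the series not given in the record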
Target sequence (P25779 123-467 limits assumed): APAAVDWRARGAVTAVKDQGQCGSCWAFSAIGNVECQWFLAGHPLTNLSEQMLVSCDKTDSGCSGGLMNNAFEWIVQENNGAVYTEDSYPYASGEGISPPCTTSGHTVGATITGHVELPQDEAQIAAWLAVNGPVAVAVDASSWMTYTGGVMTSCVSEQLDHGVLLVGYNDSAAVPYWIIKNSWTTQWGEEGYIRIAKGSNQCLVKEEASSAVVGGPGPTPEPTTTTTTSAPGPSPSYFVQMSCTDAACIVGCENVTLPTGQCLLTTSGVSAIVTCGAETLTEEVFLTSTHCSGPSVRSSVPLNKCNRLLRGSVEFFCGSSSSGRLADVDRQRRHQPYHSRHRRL
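Detergent-free condition (0.00005% Triton X-100) in acetate buffer pH 5.5 with DTT. 1.5 nM enzyme and compound were pre-mixed 15 min, then 2 uM Z-FR-AMC substrate added; reaction progress from fluorescence change between first and third reads (60 s).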
NS1 function inh = inhibitors of influenza NS1 protein function | AID 2326 | Potency, µM (highest dose often 46.1 µM), for the others: at the highest dose activity, positive = more growth | S. cerevisiae slowed by influenza A NS1, growth recovery by OD600 | 270,000 compounds, 0.4% hits; active means well fitted rising curve with a large enough effect; inconclusive means small, poorly fitted or top-dose-only effect; inactive means no such curve, though single readings can be large or run the other way; note: nearly all actives have a fitted effect of over 50% in size
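OD600 was taken as the measure of yeast growth restored by compound in an NS1-expressing S. cerevisiae strain. Cells had been washed out of glucose medium and diluted 1:100 into galactose -URA medium, pH 6.0.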
SARS PLP yeast = blocks SARS-CoV papain-like protease in a yeast assay | AID 485353 | Potency, µM (doses to about 32.9 µM), without a hit: at the top dose activity, positive = growth rescue | 330,000 compounds, 0.19% hits | S. cerevisiae expressing SARS-CoV PLpro, growth rescue; control for the full effect not named in the record; active means well fitted rising curve with a large enough effect; inconclusive means small, poorly fitted or top-dose-only effect; inactive means no such curve, though single readings can be large or run the other way; note: 0% is about no effect; nearly all actives have a fitted effect of over 55% in size; growth read by luminescence after 48 h
RE007 growth inh = less growth of the S. pombe RE007 Vpr strain. 360,000 compounds, 0.21% hits. Potency, µM (doses to about 92.2 µM), for inactives: at the top dose activity change, negative = less growth. S. pombe RE007 Vpr strain, BacTiter-Glo ATP luminescence, 24 h; control for the full effect not named in the record; active = well fitted falling curve with a large enough effect; inconclusive = small, poorly fitted or top-dose-only effect; inactive = no such curve, though single readings can be large or run the other way;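 note: % is set by controls: 0 for no effect and ±100 for the full control effect; nearly all actives have a fitted effect of over 50% in size; the assay follows cell death caused by Vpr and the record does not say whether a fall means rescue or toxicity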
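Fission yeast strain RE007, carrying one chromosomally integrated HIV-1 vpr copy, was seeded at OD 0.01 in PMG+AL medium with 23 nL pinned compound. After 24 h at 30 °C and 99% humidity, viability was read by BacTiter-Glo luminescence.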
Cruzain Triton = blocks cruzain activity in presence of Triton detergent. P25779. purified cruzain, Z-FR-AMC fluorescence, 0.01% Triton. Potency, µM, for inactives: max response, negative = inhibition, most hits filed as inhibitors. 200,000 compounds, 0.43% hits. AID 1478;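 note: plate controls were neutral wells for no effect and buffer without enzyme for full effect; nearly all actives have a fitted effect of over 40% in size; top concentration of the series not given in the record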
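Detergent-containing arm of a paired screen for aggregation-based inhibition: 0.01% Triton X-100 present. Cruzain at 1.5 nM cleaved 2 uM Z-FR-AMC at pH 5.5 with 5 mM DTT; AMC fluorescence gain over 60 s measured activity.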
StopGo reporter = lowers the luciferase signal of an FMDV 2A StopGo reporter; human cells with a luciferase reporter of 2A StopGo recoding; control for the full effect not named in the record; Potency, µM (doses to about 57.9 µM), inactives show at the highest dose signal change, negative = less light; 410,000 compounds, 1.2% hits; AID 1159524; active = well fitted falling curve with a large enough effect; inconclusive = small, poorly fitted or top-dose-only effect; inactive = no such curve, though single readings can be large or run the other way; tested in HEK293T cells; note: % is set by controls: 0 for no effect and ±100 for the full control effect; nearly all actives have a fitted effect of over 45% in size; luciferase light after 4 h
MARV entry inh = blocks Marburg virus binding to or entry into cells; Marburg virus pseudotyped entry inhibition, cell reporter; control for the full effect not named in the record; about a third of the inactives were read at about 46 µM; Potency, µM (titrated, usually from 37.8 µM), without a hit: at the top dose activity change, negative = inhibition, hits mostly inhibitors; 300,000 compounds, 1.8% hits; AID 540276; active = well fitted inhibition curve with a large enough effect; inconclusive = small, poorly fitted or top-dose-only effect, or effect the other way; inactive = flat fitted curve, though single readings scatter; tested in HEK293 cells; about a fifth of its hits are not listed in these tables; note: % is set by controls: 0 for no effect and ±100 for the full control effect; luciferase read-out
An asterisk follows results filed as active; ? = inconclusive; nt = no result given; & = joins results of further samples; [ ] = another dose, or the depositor's remark. Unless noted, calls come from the whole dose curve; as a rule, active = well fitted curve in the direction sought with a large enough effect; inconclusive = small, poorly fitted or top-dose-only effect, or another doubt; inactive = no such curve, though single readings can be large; an effect the other way counts as inactive or inconclusive. Potency is the fitted concentration of half-maximal effect.

SMILES	Lassa entry inh	Cruzain noTriton	NS1 function inh	SARS PLP yeast	RE007 growth inh	Cruzain Triton	StopGo reporter	MARV entry inh
O=C(N1CCOCC1)N(Cc1cccs1)C1CCCC1	12%	9%	4%	1%	-6%	1.7%	-24%	-5%
Brc1ccc(CNCCCSc2ncccn2)cc1	nt	nt	7%	3%	-11%	nt	-8%	nt
COc1ccc(/C=C2\C(=O)NCC(=O)N2Cc2ccccc2)cc1	?	-4%	-3%	-2%	4%	-0.9%	-27%	?
COc1ccc(-c2[nH]ncc2CN(C)Cc2cc(C)[nH]n2)c(F)c1	11%[46.1 µM]	nt	2%	0%	1%	nt	-6%	13%[46.1 µM]
COc1cccc(NC(=O)Cn2c(CCC(=O)O)ccc2-c2ccccc2)c1	10%[46.1 µM]	nt	nt	3%	19%	nt	-5%	-11%[46.1 µM]
CCOC(=O)c1c(-c2ccc(C)o2)csc1NC(=O)CSc1nnc(C)s1	-27%	?	-61%	-6%	1%	-7.5%	nt	-16%
CC(=O)Nc1ccc(S(=O)(=O)N(C)CC(=O)OCC(=O)N2CCN(C(=O)c3ccco3)CC2)cc1	-2%	nt	nt	0%	-10%	nt	0%	6%[46.1 µM]
O=c1c(/C=N/O)coc2ccc(Cl)cc12	4%[46.1 µM]	nt	-63%	2%	?	nt	-8%	-18%[46.1 µM]
CCOC(=O)c1csc(NC(=O)c2ccc(OC)c(OC)c2)n1	-9%	-8%	-74%	-11%	8%	0.6%	nt	?
CC(C)CCOc1ccc(C(=O)C[N+]2(C)CCOCC2)cc1	2%	6%	-1%	-4%	-4%	-4.6%	-2%	25%
O=C(NCc1ccco1)c1cc2nc(-c3cccs3)cc(C(F)(F)F)n2n1	30%[14.3 µM]	7%	-6%	-2%	-6%	-12%	35%[activator]	-27%
Cc1ccccc1NC(=O)c1cccc(S(=O)(=O)Nc2cccc(C(=O)O)c2)c1	10%	nt	?	10%	8%	nt	-12%	-6%
CC(Cc1ccccc1)[n+]1cc(/N=C(\[O-])Nc2ccccc2)on1 (stereo not given)	23%	-3%	-16%	3%	-8%	-7.5%	6%	22%
COc1ccc(N2C(=O)CC(N3CCN(c4ccc(S(C)(=O)=O)cc4)CC3)C2=O)cc1 (stereo not given)	-22%[14.3 µM]	6%	2%	-2%	-25%	0.8%	-3%	-5%
COc1cc(OC)c(S(=O)(=O)Nc2ccccc2C(=O)O)cc1S(=O)(=O)Nc1ccccc1C(=O)O	nt	nt	?	-2%	14%	nt	-9%	nt
COc1ccc(OCc2ccc(-c3nc(C#N)c(N4CCN(c5ccccc5)CC4)o3)o2)cc1	1%[46.1 µM]	-2%	nt	nt	nt	-1.2%	-20%	25%[46.1 µM]
N#Cc1c(C(F)(F)F)cc(-c2cccs2)nc1SCC(=O)O	nt	nt	-2%	1%	0%	nt	-13%	nt
CC(=O)Nc1ccc(NC(=O)CN(c2ccc(F)cc2)S(=O)(=O)c2ccc3c(c2)OCCO3)cc1	-21%	?	0%	3%	10%	-6.5%	-12%	-7%
CCN1CCN(c2ccc(S(=O)(=O)N3CCCCC3)cc2NC(=O)c2ccc([N+](=O)[O-])s2)CC1	?	nt	nt	-3%	10%	nt	-28%	?
COc1ccc(-c2ccc(/C=C3/C(=N)N4C=CSC4=NC3=O)o2)c([N+](=O)[O-])c1	-11%	-3%	1%	7%	0%	-4.1%	-7%	4%
Cc1c(C(N)=O)sc2nc(-c3ccccc3)cn12	9%	1%	-10%	3%	21%	-0.8%	43%[activator]	17%
O=C(COc1ccc(Cl)cc1Cl)N(Cc1ccco1)C1CCS(=O)(=O)C1 (stereo not given)	2%	2%	2%	2%	9%	-2.3%	nt	28%
COc1ccc(CNC(=O)c2nc(S(=O)(=O)Cc3ccccc3)ncc2Cl)cc1	?	0%	18%	-8%	-7%	-1.8%	22µM*	-7%&-7%[46.1 µM]
CCCc1[nH]n(-c2nc3ccccc3s2)c(=O)c1C=NCCCN(CC)CC	-1%[46.1 µM]	nt	-1%	1%	-7%	nt	17%	6%[46.1 µM]
COCCN(CC(=O)NCc1ccccc1)C(=O)CCC(=O)Nc1nccs1	-2%	5%	2%	-12%	2%	-1.1%	-15%	0%
SMILES	Lassa entry inh	Cruzain noTriton	NS1 function inh	SARS PLP yeast	RE007 growth inh	Cruzain Triton	StopGo reporter	MARV entry inh
CS(=O)(=O)C1=NSC2=NC(=O)/C(=C\c3cccn3-c3ccc(Cl)cc3)C(=N)N21	8%	?	26%	11%	6%	-18%	-24%	12%
COc1ccc(-c2nnc(SCC(=O)NCCc3ccc(S(N)(=O)=O)cc3)o2)cc1OC	nt	nt	-2%	1%	10%	nt	-2%	nt
CC(C)(C)C(=O)NCC12C=CC(O1)C1C(=O)N(c3ccccc3)C(=O)C12 (stereo not given)	-1%	?	-31%	-111%	8.9µM*	-0.8%	4%	-4%
CC(O)[C@H]1CNC(=S)N1CCc1cccc(F)c1 (stereo not given in full)	nt	nt	-2%	3%	0%	nt	1%	nt
CC(C)(C)OC(=O)[C@H](Cc1ccccc1)NC(=O)c1nc[nH]c1C(=O)NCc1ccccc1	nt	nt	22%	-2%	4%	nt	-2%	nt
COc1ccc(C(=O)Nc2ccc(C(=O)N3CCCCC3)cc2)cc1OC	nt	nt	-8%	-5%	-14%	nt	56%[activator]	?
CCOC(=O)c1nn(-c2cccc(C)c2)cc1C(=O)c1ccccc1	12%	2%	-4%	-18%	-17%	3.2%	24%	?
COCCNc1nc2ccccc2n1CC(=O)c1ccc(OC)c(OC)c1	6%[46.1 µM]	nt	0%	-5%	0%	nt	-2%	21%[46.1 µM]
COc1ccccc1C(=O)NCCCNC(=O)c1cccnc1	18%[46.1 µM]	nt	5%	0%	17%	nt	5%	?
CN1CCCN(C(c2ccccc2)c2ccc(Cl)cc2)CC1 (stereo not given)	13µM*	-2%	-4%	-12%	7%[18.4 µM]	-0.5%	-26%	?
CCC(C)Nc1nc2c(c(=O)[nH]c(=O)n2C)n1CCC(C)C (stereo not given)	-8%	-17%	-11%	-9%	-1%	0.1%	-18%	-1%
Cc1ccc(-c2n[nH]c(=S)n2/N=C\c2ccco2)cc1	?	-5%	10%	20%	-2%	-2.2%	-7%	?
CCc1nc2ccc(C(=O)O)cc2nc1CC	15µM*	-5%	9%	5%	-10%	-2.3%	?	2µM*
Cc1cccc(C(=O)Nc2cccc(C(=O)N/N=C/c3cccc(C)n3)c2)c1	-1%	nt	-1%	0%	-3%	nt	-11%	9%[46.1 µM]
COc1ccc(CCNC(=O)CSc2nc(N)c(C#N)c(-c3cccs3)c2C#N)cc1OC	-12%[14.3 µM]	?	4.5µM*	-2%	-11%	-8.1%	-25%	10%
Cc1ccc(C)c(S(=O)(=O)N2CCCC2CNC(=O)C(=O)NCCc2ccco2)c1 (stereo not given)	?	nt	nt	-2%	-12%	nt	1%	?
Cc1ccc(C(=O)Nc2cccc(N(C)S(C)(=O)=O)c2)cc1S(=O)(=O)Nc1ccccc1	-2%	-2%	-13%	4%	-6%	-8.6%	nt	-16%
CCCCCCNC(=O)C(C#N)c1nc2ccccc2nc1N1CCOCC1 (stereo not given)	18%	9%	-3%	6%	-5%	-5.7%	-4%	13%
N#Cc1c(NC(=O)C2CC(Cl)=CCC2C(=O)O)sc2c1CCCC2 (stereo not given)	20%	nt	-9%	0%	-11%	nt	-10%	4%[46.1 µM]
c1ccc(-c2csc3ncnc(N4CCOCC4)c23)cc1	-16%	nt	4%	-1%	-18%	nt	-23%	-3%[46.1 µM]
Cc1ccccc1OCCCC(=O)Nc1nccs1	-5%	-19%	-17%	12%	1%	-1.8%	nt	-1%
O=C(O)CCC(=O)N1CCc2cc(S(=O)(=O)Nc3ccc4c(c3)OCCO4)ccc21	nt	-8%	15%	-5%	-4%	8.7%	-12%	nt
CC(C)CCn1c(Oc2ccccc2Cl)nc2c1c(=O)n(C)c(=O)n2C	-26%	?	-6%	-6%	29%	-8.9%	?	-24%
O=[N+]([O-])c1cccc(S(=O)(=O)NCc2ccncc2)c1	-12%	nt	11%	-1%	7%	nt	?	-4%[46.1 µM]
COc1ccc(CC(=O)Oc2ccccc2[N+](=O)[O-])cc1	nt	nt	-1%	5%	20%	nt	-10%	nt
SMILES	Lassa entry inh	Cruzain noTriton	NS1 function inh	SARS PLP yeast	RE007 growth inh	Cruzain Triton	StopGo reporter	MARV entry inh
C[C@@H]1CC=C[C@H]2[C@H]1C(=O)N(Cc1ccccc1)[C@H]2c1ccc(Br)cc1F	nt	nt	-52%	-15%	14%	nt	?	nt
N#Cc1c(Cl)cccc1N1CCC(C(N)=O)CC1	nt	nt	1%	-1%	-9%	nt	-13%	nt
O=C(Nc1ccc2c(c1)N(S(=O)(=O)c1cccs1)CCC2)c1c(F)cccc1Cl	?	nt	nt	-2%	-5%	nt	3%	?
Cc1cccc(NC(=O)C2CCCN(S(=O)(=O)c3c(C)nn(C)c3C)C2)n1 (stereo not given)	nt	?	-2%	1%	-9%	1.9%	?	nt
CN(c1ccc(C(=O)NCCSC(C)(C)C)cc1)S(=O)(=O)c1ccccc1	23µM*	nt	5%	0%	13%	nt	23%	-17%
Nn1c(SCC(=O)NC(=O)NCc2ccccc2)nnc1C1CC1	-6%	12%	-8%	-2%	-13%	-6.4%	nt	6%
O=C(NCc1ccco1)c1sc2cccc(F)c2c1Cl	5%	?	1%	-12%	9%	-30%	43%[activator]	9%
Cc1ccc2c(c1)c(N=NC(N)=O)c(O)n2C	-20%	nt	3%	1%	-2%	nt	-8%	-6%[46.1 µM]
CCc1ccccc1NC(=O)c1ccc(F)c(S(=O)(=O)NC2CCCCCC2)c1	-15%[46.1 µM]	15%	nt	nt	nt	0.6%	0%	nt
Cc1cccn2cc(-c3ccc(S(=O)(=O)N4CCOCC4)cc3)nc12	-10%	-2%	-15%	4%	-7%	-16%	-15%	13%
CC1(C)NC(=O)N(CC(O)Cn2nnc3ccccc32)C1=O (stereo not given)	6%	-3%	-1%	-7%	11%	1.4%	-2%	-13%[46.1 µM]
CCOc1ccc(S(=O)(=O)Nc2cccc(N(C)S(C)(=O)=O)c2)cc1	?	0%	4%	-1%	7%	-5.2%	-16%	-22%[46.1 µM]
Cc1ccc(S(=O)(=O)N2CCN(c3ccc([N+](=O)[O-])cn3)CC2)cc1	23%[46.1 µM]	nt	1%	0%	1%	nt	-8%	-2%[46.1 µM]
CN(c1ccccc1)S(=O)(=O)c1cccc(NC(=O)CCNC(=O)c2ccc([N+](=O)[O-])cc2)c1	?	nt	nt	13%	-7%	nt	40µM*	4%
Cc1ccc(C(=O)N2CCN(Cc3ccc4c(c3)OCO4)CC2)c(Cl)c1	-23%[46.1 µM]	nt	-10%	9%	26%	nt	?	?

From PubChem BioAssay
